TAR Tat displ: HIV-1 TAR-Tat binding disruption; z-score (concentration not given with the values); HIV-1 TAR RNA, Tat peptide displacement FRET; stronger effect = higher value; AID 1259389; actives 0.6% (n = 100,000);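 note: score is relative to mean and SD of negative controls; some compounds called inactive have numbers as strong as hits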
CDC25B-CDK2 inh: human CDC25B-CDK2/CyclinA binding inhibition. HTRF CDC25B-CDK2/CyclinA binding, anti-His/anti-Flag; stronger effect = higher value. z-score (no concentration beside the values). actives 0.72% (n = 94,000). AID 1259370;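 note: score is relative to mean and SD of negative controls; strong numbers were not always called active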
* hit, by the source's call; x = not tested or not shown.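 Rule for the calls: active = z-score from 3 up in half or more of its runs; inactive = the rest.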

SMILES | TAR Tat displ | CDC25B-CDK2 inh
CC(C)(C)c1ccc2c(c1)CN(c1cccc(C(=O)O)c1)CO2 | 0.99 | 1.89
O=C(c1cn(CCOc2ccccc2F)c2ccccc12)C1CC1 | 0.95 | -1.9
Cc1ccc(CSc2nc3nccnc3c(=O)n2CCC(C)C)cc1 | 0.28 | -0.57
CN(C)CCCN(C(=O)CCS(=O)(=O)c1ccccc1)c1nc2c(F)cccc2s1 | 1.71 | x
COc1ccc(OCCn2cc(C(=O)C(C)(C)C)c3ccccc32)cc1 | -0.51 | 0.14
O=c1cc(-c2ccccc2)nc(NCCc2ccccc2)[nH]1 | 0.07 | 0.97
Cc1ccc(-c2nc3nc4c(c(=O)n3[nH]2)CCCC4)cc1 | -0.52 | -1.63
CCN(CC)C(=O)c1sc2nc3n(c(=O)c2c1C)CCCCC3 | 1.56 | x
CC(C)C1c2cccn2CCN1C(=O)Nc1ccccc1 (stereo not drawn) | -0.4 | x
CN(C)c1ccc(Sc2nnc(N)s2)cc1 | x | -2.12
CCCCNS(=O)(=O)c1ccc2c(c1)NC(=O)CS2 | 1.54 | x
CC1C(=O)Nc2ccc(S(=O)(=O)Nc3cccc(Cl)c3)cc2NC1=O (stereo not drawn) | x | -0.8
COc1ccc(-c2nnc(SCc3cc(=O)n4ccsc4n3)o2)cc1OC | 0.26 | -1.48
O=c1cc(CSc2nnnn2-c2ccccc2)[nH]c2[nH]n(-c3ccccc3)c(=O)c12 | -0.6 | 1.69
CN(CCC#N)c1ccc(/C=C2\CC/C(=C\c3ccc(N(C)CCC#N)cc3)C2=O)cc1 | x | -0.78
CCCCCSc1nc2c(cnn2-c2ccccc2)c(=O)[nH]1 | 1.99 | x
O=C1Nc2ccc(Br)cc2C1Cc1ccsc1 (stereo not drawn) | 0.12 | 0.56
COc1ccc(NC(=S)Nc2ccc(F)cc2F)c([N+](=O)[O-])c1 | x | -1.93
Cc1nc(-c2ccc(C)c(N3CCN(C(=O)NC4CCCC4)CC3)c2)no1 | 0.28 | x
COC(=O)c1sc(=S)n(-c2ccccc2)c1N | 2 | x
CCc1ccc(C2C(C(=O)OCC(C)C)=C(C)NC3=C2C(=O)CC(c2cccs2)C3)s1 (stereo not drawn) | 0.54 | -0.53
Nc1cc(-c2ccccc2)nc2cc(-c3ccccc3)nn12 | 0.32 | -1.96
Cc1cc(C)cc(NC(=O)CCc2c(C)nc3c4c(C)cc(C)nc4nn3c2C)c1 | 1.55 | -2.11
Cc1cccc(N2CCN([C@H]3CS(=O)(=O)C[C@@H]3S(=O)(=O)c3ccc(Cl)cc3)CC2)c1 | 2.1 | -0.73
O=C(CSc1nc2c(c(=O)n1CCc1ccccc1)SCC2)N1CCOCC1 | 1.64 | x
CCOC(=O)c1c(C)n(-c2ccccc2)c2ccc(OC(=O)c3ccco3)cc12 | x | -0.45
CCOc1ccc(C2C(C#N)=C(N)OC3=C2C(=O)CC(C)(C)C3)cc1OC (stereo not drawn) | x | -0.97
CC(C)CC(=O)Nc1ccc2nc(SCC(=O)O)sc2c1 | 1.9 | 0.08
O=C(NC1CCCC1)N1CC=C(c2c[nH]c3ccccc23)CC1 | -6.89 | x
Cc1ccccc1C1CC(=O)c2c(ccc3ccccc23)N1 (stereo not drawn) | 1 | -1.88

Whole records as entered above. Order of screens: TAR Tat displ, CDC25B-CDK2 inh
`O=C1Nc2ccc(Br)cc2C1Cc1ccsc1` (stereo not drawn) as listed: 0.12, 0.56
`Cc1cccc(N2CCN([C@H]3CS(=O)(=O)C[C@@H]3S(=O)(=O)c3ccc(Cl)cc3)CC2)c1` as listed: 2.1, -0.73
`CCc1ccc(C2C(C(=O)OCC(C)C)=C(C)NC3=C2C(=O)CC(c2cccs2)C3)s1` (stereo not drawn) as listed: 0.54, -0.53

Following part.
SMILES | TAR Tat displ | CDC25B-CDK2 inh
OCCCc1nc2ccccc2n1Cc1ccc(F)cc1 | 1.17 | 0.35
O=C(Nc1cc(F)ccc1F)C1CC2CCCN2C12C(=O)Nc1ccccc12 (stereo not drawn) | -0.93 | x
CC(C)Oc1ccc(C2N3CC4(C)CN2CC(c2ccccc2)(C3)C4=O)cc1 (stereo not drawn) | 0.58 | 1.17
CCOC(=O)c1noc2ncnc(N(C)c3ccc(C)c(C)c3)c12 | 0.54 | x
COc1cc(Br)c(CCC#N)cc1OC | x | 0.07
O=C(Cn1cc2c(n1)CCCCC2)Nc1cc(F)ccc1F | x | 0.64
CC1=C(C(=O)OCC2CCCO2)C(c2coc3ccc(Cl)cc3c2=O)C2=C(CC(C)(C)CC2=O)N1 (stereo not drawn) | -1.96 | 0.01
CCc1nn2c(=O)cc(CN(C)Cc3ccccc3)nc2s1 | 1.77 | x
O=C(Cn1c(=O)n(CC2CCCO2)c(=O)c2ccccc21)Nc1ccc(F)cc1F (stereo not drawn) | x | -1.02
CCOC(=O)C1=C(C)NC2=C(C(=O)C(C(=O)OC)C(C)C2)C1c1ccc(OC)c(Br)c1 (stereo not drawn) | 1.39 | -0.71
Cn1ncc(Br)c1C(=O)NC1CCCCC1 | 0.5 | -1.52
CC(C)c1nn2c(=O)cc(CSc3n[nH]c(-c4ccccc4F)n3)nc2s1 | 1.19 | x
COCCNc1cc(N2CCN(c3ccccn3)CC2)c2noc3c2c1C(=O)c1ccccc1-3 | -2.17 | 2.74
CCOc1cc(S(=O)(=O)n2cc(C)nc2CC)ccc1Br | -2.51 | -0.14
COc1ccc(-c2coc3cc(O)cc(O)c3c2=O)cc1 | 4.17 | x
CCOc1ccc(C2C(C#N)=C(N)Oc3cc(O)ccc32)cc1OC (stereo not drawn) | x | 0.01
COc1ccc(N(Cc2cc(CN3CCOCC3)cs2)S(=O)(=O)c2ccc(Cl)cc2)cc1 | 1.68 | x
COC(=O)c1cc(N2C(=O)C3C4C=CC(C4=C(c4ccccc4)c4ccccc4)C3C2=O)ccc1Cl (stereo not drawn) | x | -3.62
N#CC(C#N)=Cc1cccc(OCc2ccccc2)c1 | x | 0.48
CS(=O)(=O)c1sc2nc(-c3ccccc3)cc(-c3ccccc3)c2c1N | x | 0.57
O=S(=O)(c1ccc(OC2CCCC2)cc1)N1CCc2cc3ccccc3nc21 | -0.19 | -1.65
CCc1ccc(-c2nc3c(c(=O)[nH]2)Cc2cc(Br)cc(OC)c2O3)cc1 | 1.57 | -0.05
CC(C)CCNS(=O)(=O)c1ccc2c(c1)C(=O)c1cc(S(=O)(=O)NCCC(C)C)ccc1-2 | -1.29 | 0.9
CSc1nnc(NC(=O)c2cc(=O)c3c(C)cc(C)cc3o2)s1 | 0.39 | 1.07
CCCc1nn2c(=O)cc(COC(=O)COc3ccccc3C)nc2s1 | 0.19 | x
Cn1c(=O)[nH]c(=O)c2c1nc(NCc1ccccc1)n2CC(O)c1ccccc1 (stereo not drawn) | 0.61 | -1.44
Cc1cc(NC(=O)C(NS(=O)(=O)c2ccc3c(c2)oc(=O)n3C)C(C)C)ccc1Br (stereo not drawn) | x | -0.86
CC(C(=O)N1CCC(N2CCCCC2)CC1)n1c(=O)c(C(F)(F)F)nc2ccccc21 (stereo not drawn) | 1.19 | x
CSc1nc(C)cc(OCCNS(=O)(=O)c2cc(C)ccc2C)n1 | 0.83 | 0.84
Cc1ccc2ncc(C(=O)N3CCN(c4cccc(Cl)c4)CC3)c(=O)n2c1 | 0.33 | -2.61

Looked up above.
CSc1nnc(NC(=O)c2cc(=O)c3c(C)cc(C)cc3o2)s1 @ TAR Tat displ = 0.39
Cn1c(=O)[nH]c(=O)c2c1nc(NCc1ccccc1)n2CC(O)c1ccccc1 (stereo not drawn) @ TAR Tat displ = 0.61
N#CC(C#N)=Cc1cccc(OCc2ccccc2)c1 @ CDC25B-CDK2 inh = 0.48
COC(=O)c1cc(N2C(=O)C3C4C=CC(C4=C(c4ccccc4)c4ccccc4)C3C2=O)ccc1Cl (stereo not drawn) @ CDC25B-CDK2 inh = -3.62
Cc1cc(NC(=O)C(NS(=O)(=O)c2ccc3c(c2)oc(=O)n3C)C(C)C)ccc1Br (stereo not drawn) @ CDC25B-CDK2 inh = -0.86
Cc1ccc2ncc(C(=O)N3CCN(c4cccc(Cl)c4)CC3)c(=O)n2c1 @ TAR Tat displ = 0.33
CC(C)CCNS(=O)(=O)c1ccc2c(c1)C(=O)c1cc(S(=O)(=O)NCCC(C)C)ccc1-2 @ TAR Tat displ = -1.29

Next records.
SMILES | TAR Tat displ | CDC25B-CDK2 inh
O=C(c1ccc2nc(N3CCCCC3)sc2c1)N1CCC(N2CCCCC2)CC1 | -1.65 | -1.37
Fc1ccc(NC(c2nnc(-c3ccccc3)o2)c2ccccc2F)cc1 (stereo not drawn) | 0.38 | -1.65
CCOC(=O)C(=CNC1CCCCNC1=O)C(=O)OCC (stereo not drawn) | x | 1.12
CCOc1ccc(-c2nnc(SCc3cc(=O)n4ccsc4n3)o2)cc1 | 0.45 | -2.64
O=S(=O)(c1ccc(F)cc1)N1CCCN(c2nc3ccccc3n3cccc23)CC1 | 0.4 | -0.73
O=S(=O)(c1ccc(-c2cc(C(F)(F)F)on2)s1)N1CCC(c2ccccc2)C1 (stereo not drawn) | 1.71 | x
CCOCCc1nnc(NC(=O)C(=O)c2c[nH]c3ccccc23)s1 | 4.27 | -0.93
O=C(CCc1nc2sc3c(c2c(=O)[nH]1)CCCCC3)Nc1ccc(F)c(Cl)c1 | 0.23 | x
Nc1nc2nccc(-c3ccccc3)n2n1 | -0.23 | 0.32
CCOc1ccc(-n2c(SC)nc3sc4c(c3c2=O)CCN(C(C)=O)C4)cc1 | 1.12 | -2.63
O=C(CSc1nc(=O)n(CCN2CCOCC2)c2c1CCC2)Nc1ccc(F)cc1F | 1.75 | x
CC(C)c1ccc(N2C(=O)NC3CC2(C)Oc2ccccc23)cc1 (stereo not drawn) | x | -2.37
CCCN(CCC)CCNC(=O)c1nn(C)c2c1CS(=O)(=O)c1ccccc1-2 | 2.46 | -1.15
COc1ccc(OC)c(S(=O)(=O)n2nc(C)c(S(=O)(=O)N3CCCCC3)c2C)c1 | 1.42 | x
O=C1C(=O)N(C(=O)Nc2ccc(F)cc2F)c2ccccc21 | 1.84 | x

Entries above containing a tert-butyl group (two):
SMILES | TAR Tat displ | CDC25B-CDK2 inh
CC(C)(C)c1ccc2c(c1)CN(c1cccc(C(=O)O)c1)CO2 | 0.99 | 1.89
COc1ccc(OCCn2cc(C(=O)C(C)(C)C)c3ccccc32)cc1 | -0.51 | 0.14

Continuation.
SMILES | TAR Tat displ | CDC25B-CDK2 inh
Cc1ccc(Cn2c(SCc3ccc(C(=O)NCC4CCCO4)cc3)nc3ccncc32)cc1 (stereo not drawn) | 0.53 | 0.47
CC1CCN(C(=O)C2CCN(S(=O)(=O)c3ccc4c(c3)CCCC(=O)N4)CC2)CC1 | 0.43 | x
O=C(Nc1nccs1)c1ccccc1-c1nc(-c2ccc(F)cc2)no1 | 0.39 | x
COc1ccc(OC)c(NC(=O)c2cnc3sccn3c2=O)c1 | x | -1.5
CCn1c(SCC(=O)c2ccccc2)nnc1-c1cccs1 | 2.04 | x
CC(C)C1N=C2c3ccccc3N=C(SCC(=O)Nc3ccccc3)N2C1=O (stereo not drawn) | 1.06 | x
COC(=O)c1cc(S(=O)(=O)NCCc2sccc2C)c[nH]1 | 0.15 | x
COc1ccc(Oc2c(C(F)(F)F)oc3c(CN(C)C)c(O)ccc3c2=O)cc1 | -5.84 | -1.42
O=S1(=O)N=C(c2ccc(F)cc2)Nc2ccc(S(=O)(=O)N3CCCCC3)cc21 | -0.25 | x
O=C(Cn1cc(C(=O)c2ccco2)c2ccccc21)Nc1ccc(Br)cc1 | 0.86 | 1.53
CC(=O)O[C@@]12C[C@@H](C)[C@@]3(O)[C@@H](C=C(CO)C[C@]4(O)C(=O)C(C)=C[C@@H]34)[C@@H]1C2(C)C | 2.58 | x
CCn1cc(C(=O)O)c(=O)c2cnc(N3CCN(C(=O)Nc4ccccc4)CC3)nc21 | 0.8 | 0.7
O=S(=O)(Nc1ccc2c(c1)nc1n2CCN(Cc2ccccc2)C1)c1ccc(Cl)cc1 | -1.11 | -1.32
CC(C)(C)c1ccc(C(=O)n2nc(-c3ccc(F)cc3)nc2N)cc1 | 0.17 | 1.15
CC(C)(C)c1nc(Sc2ncc([N+](=O)[O-])s2)n[nH]1 | x | -1.39
Fc1ccc(OCc2nn3c(Cn4cnc5ccccc54)nnc3s2)cc1 | 1.94 | -1.98
O=C(Nc1nc2ccccc2s1)c1cc(-c2cccnc2)nc2ccccc12 | 1.12 | x
COC(=O)C1C(=O)C2=C(CC1C)NC(C)=C(C(=O)OCCOC(C)C)C2c1ccc2c(c1)OCO2 (stereo not drawn) | 1.44 | -1.08
Cc1cccc(-c2nc(SCc3cc(=O)n4nc(CC(C)C)sc4n3)n[nH]2)c1 | -0.86 | x
COc1ccccc1Nc1nc2nonc2nc1Nc1cccc(Br)c1 | -1.17 | -0.88
Cc1ccc2c(=O)cc(C(=O)Nc3nnc(CC(C)C)s3)oc2c1 | 2.09 | -1.7
CS(=O)(=O)NCc1ccc(Cl)cc1 | x | -0.53
Cn1cnc2c(=O)oc3ccc(S(=O)(=O)Nc4ccc(Br)cc4)cc3c21 | -0.2 | x
CCCc1nn2c(=O)cc(CSc3nnc(-c4ccccc4F)o3)nc2s1 | -1.16 | 0.67
Cc1cc(=O)n(-c2nc3ccccc3[nH]2)[nH]1 | 1.54 | 0.4
O=Cc1c(Cl)[nH]c(=O)n1-c1ccccc1 | x | 6.15
CC(C)NC(=O)c1ccc2snnc2c1 | 0.27 | -1.16
CN1CC=C(/C=C/c2ccccc2)CC1 | 1.59 | 0.55
Brc1cccc(C2C=C(c3cccnc3)Nc3nc4ccccc4n32)c1 (stereo not drawn) | 0.4 | x
Cc1ccc(-c2nc3cnccn3c2Nc2ccc(Cl)cc2)o1 | 1.73 | -1.87
Cc1noc2ncnc(N3CCCC(C(=O)NCCC(C)C)C3)c12 (stereo not drawn) | 0.29 | x
Cn1nc(C(=O)Nc2ccc(F)c(Cl)c2)c2c1-c1ccsc1CC2 | 0.51 | x
O=C(Nc1ccc(F)cc1)c1noc2ncnc(N3CCOCC3)c12 | -0.43 | x
